Screening results as filed in PubChem.
Bst PK mod – Pyruvate Kinase | partly purified Bacillus stearothermophilus pyruvate kinase, luminescence ATP production; ribose 5-phosphate activator present at AC10 | Potency, µM | 51,000 tested, 1.2% active; in the data active means potency below about 11 µM; inconclusive means mostly about 12 µM to 25 µM; inactive means weaker than that;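 the screen sought inhibitors and activators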;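 also: potency is read from the fitted curve at half-maximal effect; scaled between full activation by ribose 5 phosphate and full inhibition by luteolin; about four in five hits inhibit and the cells do not say which; series up to 57 µM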
TsaE inh – qHTS Assay for Inhibitors of YjeE; purified YjeE, fluorescence polarisation of a bound ADP probe; AID 605, 2007; 71,000 tested, 0.05% active; Potency, µM; tRNA threonylcarbamoyladenosine biosynthesis protein TsaE (Escherichia coli (strain …; active = well fitted falling curve; inconclusive = weaker or top-dose-only fall, or a rising curve; inactive = flat or poorly fitted curve;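 also: top concentration of the series not given in the record; excess ADP was the control for the full effect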
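Fluorescence polarization of a BODIPY Texas Red–ADP probe (2 uM) bound to purified YjeE (10 uM) was read after 15 min room-temperature incubation with compounds. Loss of polarization marks inhibitors; ADP serves as titrated control.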
* hit, by the source's call; i = inactive; ? = inconclusive; . = not tested or not shown. An excerpt, so the mix of outcomes need not match the whole.

SMILES	Bst PK mod	TsaE inh
CC[C@@H](C)[C@H]1O[C@]2(CC[C@@H]1C)C[C@@H]1C[C@H](C/C=C(/C)[C@H](O[C@@H]3C[C@H](OC)[C@H](O[C@@H]4C[C@H](OC)[C@@H](O)[C@H](C)O4)[C@H](C)O3)[C@@H](C)/C=C\C=C3CO[C@@H]4[C@H](O)C(C)=C[C@@H](C(=O)O1)[C@]34O)O2 (tested in a mixture with another compound)	.	i
N#Cc1nc(COc2ccc(Br)cc2)oc1NCCCn1ccnc1	>57	i
COc1ccc(Nc2nccc3c2nnn3C)cc1	.	i
CCCc1cc(C(=O)Nc2cc(C)nn2-c2ccccc2)no1	.	i
Cc1nc(NC(C)c2ccccc2)c2oc3ccccc3c2n1 (centres undefined)	>57	i
COc1ccc(N2CCN(C(=O)Cc3nn(C)c(=O)c4ccccc34)CC2)cc1	>57	i
CCOC(=O)c1[nH]c(C)c(C(=O)N(C)Cc2ccccc2)c1C	>57	i
Cc1cc(C)n(-c2ccc(C(=O)OCn3nnc4ccccc4c3=O)cc2)n1	>57	i
O=C(Nc1nnc(COc2ccccc2)s1)c1ccco1	>57	i
CCOc1ccccc1N(CC(=O)Nc1ccc(C)cc1)S(C)(=O)=O	.	i
O=C(CN1CCN(CCC(=O)Nc2ccccc2F)CC1)Nc1ccc(Cl)cc1	>57	i
O=C(NC1CCCC1)C(c1ccccn1)N(C(=O)c1csnn1)C1CC1 (centres undefined)	>57	i
CCCCOC(=O)Nc1ccc(S(=O)(=O)Nc2nc(C)cc(C)n2)cc1	>26	.
O=C(Nn1cnnc1)c1ccccc1-c1ccccc1	>57	i
CC(=O)Nc1cccc(Oc2nc(C)cc(C)c2C#N)c1	.	i
O=C1Cc2ccccc2C(=O)N1CCc1ccccc1	.	i
CN1CCN(c2ncc3nc(-c4cn(C)c5ccccc45)c(=O)n(-c4ccccc4)c3n2)CC1	.	i
Cc1ccc(C2C(C#N)=C(N)Oc3nc(-c4ccccc4)[nH]c32)o1 (centres undefined)	>57	i
Cc1ccc(S(=O)(=O)c2c(C)nn(C(C)(C)C)c2OC(=O)C(C)(C)C)cc1	>57	i
Cc1cc(C)nc(N2CCC(C(=O)NC3CCCc4ccccc43)CC2)n1 (centres undefined)	>57	i
CCOC(=O)N1CCN(C(=O)CS(=O)(=O)c2cn(Cc3ccccc3C)c3ccccc23)CC1	>57	i
COc1cccc(OC)c1-c1nn2c(-c3ccccc3Cl)nnc2s1	7.3*	.
CCOC(=O)Cc1nnc(NC(=O)CC)s1	>57	i
Cc1cccc(C)c1NC(=O)C1(NC(=O)C2CCCN2C(=O)OC(C)(C)C)CCCCC1 (centres undefined)	>57	i
O=C(c1cc2ccccc2oc1=O)N(Cc1ccco1)C1CCS(=O)(=O)C1 (centres undefined)	.	i
CCCn1cc(SCC(=O)Nc2nnc(C)s2)c2ccccc21	.	i
C=CCNc1nc(-c2c(C)nc3sccn23)cs1	.	i
O=C(O)c1cc(NCc2c(F)cccc2Cl)ccc1N1CCOCC1	>57	i
Cc1cc(NC(=O)c2cnn3c(C(F)F)cc(-c4ccccc4)nc23)no1	>57	i
Cc1c(C(=O)O)oc2ccc(S(=O)(=O)NCc3ccccc3)cc12	>57	i
O=C(NC1CCCCC1)c1cc(-c2ccco2)on1	>57	i
Cc1nc2sc(C(c3ccco3)N3CCC(C)CC3)c(O)n2n1 (centres undefined)	.	i
CCCCNC(=O)CCC(=O)Nc1ccc2nc(N3CCOCC3)cc(C)c2c1	.	i
COc1ccc(C(=O)N2CCC3(CCCN(c4ccccn4)C3)CC2)cc1	.	i
CCOC(=O)CC1=C(C(=O)OCC)C(c2cc(OC)c(OC)cc2OC)C(C#N)=C(N)O1 (centres undefined)	>26	.
N/C(CCCN1CCCCC1)=N/O	>26	.
CC(C)NC(=O)N1CCC2(CC1)CCN(S(=O)(=O)c1ccccc1)CC2	.	i
Nc1cc(C(Cl)=C(Cl)Cl)c(S(N)(=O)=O)cc1S(N)(=O)=O	.	i
COCc1nc2ccccc2n1Cc1ccccc1Br	i	i
O=C(O)CCSc1nnnn1-c1ccccc1	>57	i
O=C(Nc1ccc(OC(F)(F)F)cc1)c1cnc2n(c1=O)CCS2	.	i
COc1cc(S(=O)(=O)Nc2ncccc2C)c(OC)cc1Cl	>57	i
CCOC(=O)Nc1cc(C)ccc1OC	>57	i
COc1ccc(NC(=O)C2C(=O)N(C)C3(C)CC2c2ccccc2O3)cc1 (centres undefined)	>57	i
S=C(c1ccc(-c2ccccc2Cl)o1)N1CCOCC1	.	i
COc1ccc(C(=O)CSc2nccc(=O)[nH]2)cc1	>57	i
CCCCCCC(C)n1[nH]c(=O)c2c(C)cc(=O)[nH]c21 (centres undefined)	>57	i
N#Cc1c(NC(=O)c2cc(C3CC3)on2)sc2c1CCC2	.	i
CCN(CCCNC(=O)CCc1nc(-c2ccc(C)cc2)no1)c1cccc(C)c1	>57	i
O=C1CC(SCc2nc3ccccc3[nH]2)C(=O)N1c1cccc(F)c1 (centres undefined)	>57	i
COc1cc(S(=O)(=O)Nc2cccnc2)ccc1F	>57	i
COc1ccccc1-c1ccc2ncnc(N(C)C)c2c1	.	i
O=C(C1CCCCC1)N1CCN(c2ccccc2F)CC1	>57	i
CC1(C)CC2(CC(C)(C)N1)OC(=O)N1CCc3ccccc3C12C (centres undefined)	.	i
CC(C)(CC(=O)O)Cc1nc(-c2ccc(Cl)cc2)no1	.	i
O=C(/C=C\Nc1ccc2c(c1)OCO2)c1ccccn1	.	i
COC(=O)C1C(=O)NC(SC)=C(C#N)C1c1ccccc1 (centres undefined)	>57	i
N#Cc1cc(C(=O)c2cc(Br)ccc2O)cn(C2CC2)c1=O	>57	i
O=C(NCc1ccccc1Cl)C1CCN(C(=O)c2sccc2-n2cccc2)CC1	.	i
Cn1cccc1Cc1nnc(SCC(=O)Nc2cccc(F)c2)n1CCc1ccccc1	.	i
Remaining list, next part:
SMILES	Bst PK mod	TsaE inh
COc1ccc(S(=O)(=O)N(C)CC(=O)N2CCC(C(N)=O)CC2)cc1	>57	i
CCOC(=O)c1c(C)n(C)c2ccc(OC(=O)c3ccoc3)cc12	i	i
CCOC(=O)C1CSC(CC(=O)Nc2ccc(Cl)cc2)C(=O)N1 (centres undefined)	>57	i
Cc1ccc(S(=O)(=O)NCCCNC(=O)c2ccccc2)cc1	>57	i
COc1cc(C(N)=O)cc(Br)c1OC	>57	i
COc1ccc(N2C(=O)C3CCCN3C2c2ccc(F)cc2)cc1Cl (centres undefined)	>57	i
COc1ccc(Cl)cc1C(=O)Nc1ccccc1N1CCN(C)CC1	>57	i
O=S1(=O)CC(O)C(N2CCC(c3ccccc3)CC2)C1 (centres undefined)	>57	i
O=C(COC(=O)c1ccc(S(=O)(=O)NCc2ccco2)cc1)Nc1ccccc1OC(F)F	>57	i
Cc1oc(-c2ccccc2F)nc1CN1CCC(C(=O)NCc2cccs2)CC1	>57	i
O=c1c(-c2cc(F)cc(F)c2)nc2cncnc2n1C1CC1	.	i
CN1/C(=C\C(=O)CN2C(=O)NC3(CCCCCC3)C2=O)C(C)(C)c2ccccc21	>57	i
COC(=O)COc1ccc2occ(C(C)=O)c2c1	.	i
COc1cc2c(=O)n(Cc3ccco3)c(=O)n(CC(=O)c3cccc(Br)c3)c2cc1OC	>57	i
CCN(CC)S(=O)(=O)c1ccc2c(c1)nc(SCc1nc3ccsc3c(=O)[nH]1)n2CC	>57	i
C=CCn1c(=O)c2ccccc2n2c(SCc3nnc(-c4ccccc4Br)o3)nnc12	>57	i
CCOc1ccc2nc(S(N)(=O)=O)sc2c1	>11	.
CCCN(CCC)S(=O)(=O)c1ccc(NS(C)(=O)=O)cc1	>57	i
COc1cc(CNC2CCCC2)cc(OC)c1OC	>57	i
CCc1nnc(NC(=O)CSc2nnc(Cc3cccn3C)n2C)s1	.	i
CCCCNc1nc(C)nc2c1nc(-c1ccccc1)n2CC1CCCN1CC (centres undefined)	.	i
CC(=O)N(C)c1ccc(NS(=O)(=O)Cc2ccccc2)cc1	.	i
COCCNC(=O)NC1(C(F)(F)F)Oc2ccc(Cl)cc2O1 (centres undefined)	>57	i
COc1ccc(Cl)cc1S(=O)(=O)NCc1cccs1	>57	i
CC(C)NC[C@@H](O)c1ccc(O)c2ncccc12	.	i
CCOC(=O)c1c(P(=O)(N2CCOCC2)N2CCOCC2)noc1N	>57	i
O=C(c1ccccc1F)N1CCN(S(=O)(=O)c2ccc(S(=O)(=O)N3CCCCC3)cc2)CC1	>57	i
CCOc1ccc(C(=O)Nc2c3c(nn2-c2cccc(Cl)c2)CS(=O)C3)cc1 (centres undefined)	>57	i
O=c1[nH]c(=O)n(Cc2ccco2)c2c1C(C(F)(F)F)(C(F)(F)F)N=C(c1ccco1)N2	>26	.
Cc1nnc(Sc2nc(Sc3nnc(C)s3)nc(N3CCN(C)CC3)n2)s1	>57	i
CCOC(=O)Cc1csc(NC(=O)COc2ccccc2OC)n1	.	i
CCN(c1nc(N)c(C(=O)N=C(N)N)nc1Cl)C(C)C	.	i
CCOc1ccc(CCNS(=O)(=O)c2cnc[nH]2)cc1OCC	>57	i
CCOC(=O)c1c(NC(=O)CSc2nnc(-c3cccnc3)o2)sc(C)c1C	>57	i
CN(C)S(=O)(=O)c1cccc(C(=O)NCCc2ccccc2)c1	i	i
COC(=O)C1Cc2c([nH]c3ccccc23)C(C)N1 (centres undefined)	>57	i

Another view of some results above.
SMILES: O=C(C1CCCCC1)N1CCN(c2ccccc2F)CC1
- Bst PK mod = >57
- TsaE inh = i

SMILES: CC1(C)CC2(CC(C)(C)N1)OC(=O)N1CCc3ccccc3C12C (centres undefined)
- Bst PK mod = .
- TsaE inh = i

Next part:
SMILES	Bst PK mod	TsaE inh
Cc1ccc(CN2CCSc3ccc(C(=O)N4CCN(c5ncccn5)CC4)cc32)cc1	>57	i
COc1ccc(-n2ccnc2SCC(=O)Nc2ccc(OC)cc2OC)cc1	>57	i
Cc1cc(=O)oc2cc(O)c(CN(C)CC(=O)O)cc12	.	i
CCN(CC)C(=O)CSc1nnc(-c2cnccn2)n1-c1ccc(C)cc1	>57	i
C=CCN1CN(S(=O)(=O)c2cccs2)c2nc3ccccc3nc21	>57	i
O=C(O)CCc1ccc(-c2cccs2)n1-c1ccc(C(=O)O)cc1	.	i
CCOC(=O)CC(=O)CSc1nc(-c2cccnc2)cc(C)c1C#N	>57	i
COc1ccc(C2CC(c3ccccc3C)n3nc(N)nc3N2)cc1 (centres undefined)	.	i
CCOC(=O)c1c(NC(=O)c2cccs2)sc(C)c1C	>57	i
Cc1ccc2[nH]c(=O)c(COC(=O)c3ccccn3)cc2c1	.	i
Cc1cnc(NC(=O)c2ccc(-c3nc4ccccc4s3)o2)s1	i	i
CC1(C)NC(=O)N(CCCSc2ccc(Cl)cc2)C1=O	>57	i
CN1CCc2cc3c(c4c2C1CC41CCC(=NO)CC1)OCO3 (centres undefined)	>57	i
Cc1ccc2c(c1)-c1cc(C)nn1C(c1ccc3c(c1)OCO3)N2 (centres undefined)	?	i
COc1cccc(Cn2c(=O)c(-c3ccc(F)cc3)nc3cnc(N4CCNCC4)nc32)c1	.	i
Cc1ccc(C2N(c3nccs3)C(=O)C3CCCN32)cc1 (centres undefined)	>57	i
N#Cc1c(NC(=O)CSc2ncnc3sccc23)oc(-c2ccco2)c1-c1ccco1	>57	i
CN1C(=S)SC(C)(C)C1NO (centres undefined)	>57	i
O=C(CP(=O)(c1ccccc1)c1ccccc1)Nn1cnnc1	.	i
COc1ccc(Oc2ncc3ncc(=O)n(-c4ccc(OC)cc4)c3n2)cc1	.	i
COc1ccccc1CN1CC[C@@]2(CCCN(C(=O)c3c(C)noc3C)C2)C1	.	i
O=C(c1cccs1)N(C(=O)c1cccs1)c1ccccn1	.	i
CCCCn1c(=O)n(C)c(=O)c2c(C(F)(F)F)cc(-c3ccncc3)nc21	>57	i
O=C(O)c1ccccc1S(=O)(=O)c1ccccc1CO	>57	i
CC(C)NC(=O)CN1CCC(O)(c2ccccc2)CC1	>57	i
CC(C)(C)c1ccc(S(=O)(=O)N2CCN(CCC#N)CC2)cc1	.	i
CN(C)CCNC(=O)C(C(=O)c1ccc(F)cc1)n1ccccc1=O (centres undefined)	>57	i
CCOC(=O)c1[nH]c(C)c(C(=O)c2cc(F)ccc2F)c1C	>57	i
OC(COc1ccc(Cl)c2ccccc12)CN1CCN(c2ccccn2)CC1 (centres undefined)	i	i

Structures listed so far that have an aryl thioether with sulfur outside any ring:
SMILES	Bst PK mod	TsaE inh
CCCn1cc(SCC(=O)Nc2nnc(C)s2)c2ccccc21	.	i
O=C(O)CCSc1nnnn1-c1ccccc1	>57	i
COc1ccc(C(=O)CSc2nccc(=O)[nH]2)cc1	>57	i
Cn1cccc1Cc1nnc(SCC(=O)Nc2cccc(F)c2)n1CCc1ccccc1	.	i
CCN(CC)S(=O)(=O)c1ccc2c(c1)nc(SCc1nc3ccsc3c(=O)[nH]1)n2CC	>57	i
C=CCn1c(=O)c2ccccc2n2c(SCc3nnc(-c4ccccc4Br)o3)nnc12	>57	i
CCc1nnc(NC(=O)CSc2nnc(Cc3cccn3C)n2C)s1	.	i
Cc1nnc(Sc2nc(Sc3nnc(C)s3)nc(N3CCN(C)CC3)n2)s1	>57	i
CCOC(=O)c1c(NC(=O)CSc2nnc(-c3cccnc3)o2)sc(C)c1C	>57	i
COc1ccc(-n2ccnc2SCC(=O)Nc2ccc(OC)cc2OC)cc1	>57	i
CCN(CC)C(=O)CSc1nnc(-c2cnccn2)n1-c1ccc(C)cc1	>57	i
CCOC(=O)CC(=O)CSc1nc(-c2cccnc2)cc(C)c1C#N	>57	i
CC1(C)NC(=O)N(CCCSc2ccc(Cl)cc2)C1=O	>57	i
N#Cc1c(NC(=O)CSc2ncnc3sccc23)oc(-c2ccco2)c1-c1ccco1	>57	i
